CSC inhib: blocks cancer stem cells. AID 2717. inhibition, % at 7.5 µM. cancer stem cell-like cells viability, luminescence. 1.1% of 300,000 active;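 active = mean at 75% or more and at least half the replicates too; tested in HMLE shEcad cells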;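 also: 0% = median of negative and 100% = median of positive control wells; the first replicate is given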
PABP polyA inh: PABP-poly(A) binding inhibition | inhibition, % at 35 µM | AID 2014 | 1% of 290,000 active | PABP-poly(A) RNA binding, fluorescence polarization;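 active = 50% or more with normal probe brightness, or confirmed in later tests; about a fifth of its hits are not listed in these tables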;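 also: calls also rest on retests at 20 µM and on dose response follow-up; controls were probe without protein and protein plus probe with vehicle; some compounds called inactive have numbers as strong as hits; many hits fall short of the cut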
Yeast UUG start: yeast start codon fidelity modulation; S. cerevisiae UUG-firefly luciferase reporter, luminescence/redox ratio; 0.13% of 350,000 active; activity score, % at 18.7 µM;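 active = replicate mean at a twofold rise or more, about +100% in these data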;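 also: firefly luciferase made from a UUG start codon reports start codon fidelity; reporter light over untreated wells divided by growth signal over untreated wells; some hits fall short of that in this replicate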
Rce1 inh: inhibitors of yeast Ras-converting enzyme | Q03530 | yeast membranes, quenched prenylated peptide cleavage fluorescence | calls only | 0.27% of 290,000 active | AID 2563;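 active = fall in fluorescence gain of 50% or more versus controls, with final raw signal at or below 3038400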;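 also: plate controls were neutral control wells for no effect and wells lacking membranes for full effect; tested at 10 µM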
Target sequence (Q03530 whole entry, looked up): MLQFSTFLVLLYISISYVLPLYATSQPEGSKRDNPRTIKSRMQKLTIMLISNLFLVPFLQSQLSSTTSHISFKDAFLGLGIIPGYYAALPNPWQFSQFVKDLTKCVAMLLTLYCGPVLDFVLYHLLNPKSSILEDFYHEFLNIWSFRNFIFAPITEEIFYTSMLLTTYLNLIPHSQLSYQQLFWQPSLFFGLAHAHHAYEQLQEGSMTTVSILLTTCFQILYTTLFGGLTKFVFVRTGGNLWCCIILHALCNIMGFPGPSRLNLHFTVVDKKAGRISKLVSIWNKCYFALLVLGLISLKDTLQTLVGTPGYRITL
eIF4H FP inh: inhibitors of RNA binding by human eIF4H; eIF4H fluorescence polarization binding assay; inhibition, % at 35 µM; 0.94% of 290,000 active;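 active = 50% or more with normal probe brightness, or confirmed in later tests; about a fifth of its hits are not listed in these tables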;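 also: calls also rest on retests at 20 µM and on dose response follow-up; 0% = protein and probe with vehicle and 100% = probe without protein; strong numbers were not always called active; many hits fall short of the cut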
MT1-MMP act inh: MT1-MMP (human) activation inhibition; P50281; HT1080 RFP-PRO-GFP cells, GFP/RFP ratio fluorescence, overnight; percent of plate control window, DMSO zero; GFP/RFP ratio change, % at 20 µM; 0.061% of 360,000 active;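 active = GFP/RFP ratio change of at least 30% with cell ATP level not reduced by more than half and red fluorescence within 50% of control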; also: strong numbers were not always called active
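Read-out: GFP/RFP fluorescence ratio; Test system: RFP-PRO-GFP reporter HT1080 cells; Compound dosing: single-point 20 µM compound, 1% DMSO; Times: overnight compound exposure at 37 °C.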
Env fusion inh: inhibitors of HIV Env-mediated cell fusion | AID 651610 | HeLa-JRFL Env/CEM21 cell fusion, luciferase | 1.1% of 360,000 active | inhibition, % at 12.3 µM;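 active = mean replicate inhibition score of at least 50 and every replicate individually at or above 50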;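 also: 0% = plate neutral controls and 100% = maraviroc near 300 nM; one replicate is shown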
MT1-MMP act inh RFP: recorded beside MT1-MMP act inh, whose call it bears; RFP signal change, %; measured here: RFP expression control read;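 0 = vehicle wells; hits needed this value within 50% of zero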
* = called active by the depositor. Some of the compounds tested. The share of hits here may be higher or lower than overall.

The first 5 compounds, ahead of the listing:
For Cc1ccc(S(=O)(=O)N2CCN(C(=O)CN3CCCCC3)C2C(C)C)cc1 (stereo not drawn) the results were CSC inhib -9, PABP polyA inh 10, Rce1 inh inactive, eIF4H FP inh 2, MT1-MMP act inh 3 and MT1-MMP act inh RFP 4.
`Cc1ccc(NC(=O)N/C=C/c2ccc(Cl)cc2)cc1` gave CSC inhib -5, PABP polyA inh 5, Yeast UUG start -17, Rce1 inh inactive, eIF4H FP inh 9, MT1-MMP act inh -1 and MT1-MMP act inh RFP -3.
For CCOc1ccc(CNC(=O)CCCN2C(=O)C(c3ccccc3)Oc3cccnc32)cc1 (stereo not drawn) the results were CSC inhib 10, PABP polyA inh -8, Yeast UUG start 10, Rce1 inh inactive, eIF4H FP inh -12, MT1-MMP act inh -2, Env fusion inh 10 and MT1-MMP act inh RFP -3.
Screening CC1CCCCC1N1CCN(C(=O)c2cccc(F)c2)CC1 (stereo not drawn) returned CSC inhib -11, PABP polyA inh 1, Yeast UUG start -14, Rce1 inh inactive, eIF4H FP inh 3, MT1-MMP act inh 2 and MT1-MMP act inh RFP 7.
Screening CC(C)c1ccc(NC2=CC(=O)CC(C)(C)C2)cc1 returned CSC inhib -4, PABP polyA inh -3, Yeast UUG start -11, Rce1 inh inactive, eIF4H FP inh -3, MT1-MMP act inh 2, Env fusion inh -1 and MT1-MMP act inh RFP -2.

All compounds of this part, repeating the preview:
For Cc1ccc(S(=O)(=O)N2CCN(C(=O)CN3CCCCC3)C2C(C)C)cc1 (stereo not drawn) the results were CSC inhib -9, PABP polyA inh 10, Rce1 inh inactive, eIF4H FP inh 2, MT1-MMP act inh 3 and MT1-MMP act inh RFP 4.
`Cc1ccc(NC(=O)N/C=C/c2ccc(Cl)cc2)cc1` gave CSC inhib -5, PABP polyA inh 5, Yeast UUG start -17, Rce1 inh inactive, eIF4H FP inh 9, MT1-MMP act inh -1 and MT1-MMP act inh RFP -3.
For CCOc1ccc(CNC(=O)CCCN2C(=O)C(c3ccccc3)Oc3cccnc32)cc1 (stereo not drawn) the results were CSC inhib 10, PABP polyA inh -8, Yeast UUG start 10, Rce1 inh inactive, eIF4H FP inh -12, MT1-MMP act inh -2, Env fusion inh 10 and MT1-MMP act inh RFP -3.
Screening CC1CCCCC1N1CCN(C(=O)c2cccc(F)c2)CC1 (stereo not drawn) returned CSC inhib -11, PABP polyA inh 1, Yeast UUG start -14, Rce1 inh inactive, eIF4H FP inh 3, MT1-MMP act inh 2 and MT1-MMP act inh RFP 7.
Screening CC(C)c1ccc(NC2=CC(=O)CC(C)(C)C2)cc1 returned CSC inhib -4, PABP polyA inh -3, Yeast UUG start -11, Rce1 inh inactive, eIF4H FP inh -3, MT1-MMP act inh 2, Env fusion inh -1 and MT1-MMP act inh RFP -2.
For c1ccc2c(c1)CCc1snnc1-2 the results were CSC inhib -29, PABP polyA inh -5, Yeast UUG start -11, Rce1 inh inactive, eIF4H FP inh 4, MT1-MMP act inh -2, Env fusion inh 5 and MT1-MMP act inh RFP 2.
`CCOc1ncccc1C(=O)OCC(=O)NC1CCCCCC1` gave Yeast UUG start 3, MT1-MMP act inh 0, Env fusion inh -7 and MT1-MMP act inh RFP 0.
Screening COc1cc(C2c3c([nH]c(=O)[nH]c3=O)Nc3ccc4ccccc4c32)ccc1O (stereo not drawn) returned CSC inhib -9, PABP polyA inh -5, Yeast UUG start -1, eIF4H FP inh 31, MT1-MMP act inh -4, Env fusion inh -10 and MT1-MMP act inh RFP -4.
`CCc1cc(C(=O)O)c(NC(=O)c2cc(OC)c(OC)c(OC)c2)s1` gave CSC inhib 8, PABP polyA inh -11, Rce1 inh inactive, eIF4H FP inh 5, MT1-MMP act inh 21, Env fusion inh -16 and MT1-MMP act inh RFP -3.
`COc1ccc(-c2cc(C(=O)NCCN3CCOCC3)c3ccccc3n2)c(OC)c1` gave CSC inhib 7, PABP polyA inh 2, Yeast UUG start -1, Rce1 inh inactive, eIF4H FP inh 4, MT1-MMP act inh 9, Env fusion inh -45 and MT1-MMP act inh RFP 5.
COc1ccc(CC(=O)NNS(=O)(=O)c2ccccc2[N+](=O)[O-])cc1 was read as CSC inhib -18, PABP polyA inh 2, Yeast UUG start -7, Rce1 inh inactive, eIF4H FP inh -3, MT1-MMP act inh 1, Env fusion inh -1 and MT1-MMP act inh RFP 4.
For O=C1N/C(=N\S(=O)(=O)Cc2ccccc2)S/C1=C/c1cc([N+](=O)[O-])ccc1O the results were CSC inhib -2, PABP polyA inh 14, Rce1 inh inactive, eIF4H FP inh 3, MT1-MMP act inh -75, Env fusion inh 13 and MT1-MMP act inh RFP 7.
`CSc1ccc(C2CC(=O)Nc3c2c(=O)n(C)c(=O)n3C)cc1` (stereo not drawn) gave CSC inhib -9, PABP polyA inh 0, Rce1 inh inactive, eIF4H FP inh -1, MT1-MMP act inh 3, Env fusion inh -7 and MT1-MMP act inh RFP 2.
For CCCC(=O)N(CCN(C(=O)CCC)c1ccccc1)c1ccccc1 the results were CSC inhib -18, PABP polyA inh -1, Yeast UUG start 10, Rce1 inh inactive, eIF4H FP inh -6, MT1-MMP act inh 5, Env fusion inh -133 and MT1-MMP act inh RFP 0.
Screening O=C(CSc1n[nH]c(=O)n1C1CC1)Nc1ccccc1 returned CSC inhib -9, PABP polyA inh -1, Yeast UUG start -8, Rce1 inh inactive, eIF4H FP inh -1, MT1-MMP act inh 0, Env fusion inh -2 and MT1-MMP act inh RFP 2.
O=C(COC(=O)c1ccc(F)c(S(=O)(=O)N2CCOCC2)c1)NCc1ccco1 was read as PABP polyA inh -2, Yeast UUG start -14, Rce1 inh inactive, eIF4H FP inh -7, MT1-MMP act inh -1 and MT1-MMP act inh RFP 5.
Screening O=C1CCC(C(=O)OCc2c(Cl)cccc2Cl)N1 (stereo not drawn) returned PABP polyA inh 4, Yeast UUG start -11, Rce1 inh inactive, eIF4H FP inh 4, MT1-MMP act inh -55 and MT1-MMP act inh RFP -55.
For O=C(NNC1=C(C(=O)C(F)(F)F)CCC1)c1ccc(Cl)cc1 the results were CSC inhib 82*, PABP polyA inh 5, Rce1 inh inactive, eIF4H FP inh 9, MT1-MMP act inh 9, Env fusion inh 34 and MT1-MMP act inh RFP 1.
CCCc1cc(=O)[nH]c(SCC(=O)c2ccc3c(c2)NC(=O)CO3)n1 was read as CSC inhib -7, PABP polyA inh -10, Yeast UUG start 2, Rce1 inh inactive, eIF4H FP inh -8, MT1-MMP act inh 1, Env fusion inh -8 and MT1-MMP act inh RFP 0.
For CC1(C)CC2CC(C)(CN2C(=S)Nc2ccccc2)C1 (stereo not drawn) the results were CSC inhib -16, PABP polyA inh 2, Rce1 inh inactive, eIF4H FP inh -4, MT1-MMP act inh 0, Env fusion inh 11 and MT1-MMP act inh RFP 1.
For COc1ccc(C(=O)Oc2cccc3cccnc23)cc1[N+](=O)[O-] the results were CSC inhib 11, PABP polyA inh 6, Rce1 inh inactive, eIF4H FP inh 2, MT1-MMP act inh 3, Env fusion inh 18 and MT1-MMP act inh RFP 10.
Cn1c(NC(=O)c2ccco2)c(-c2ccccc2Cl)c(=O)c2ccccc21 was read as CSC inhib -9, PABP polyA inh 4, Yeast UUG start -6, Rce1 inh inactive, eIF4H FP inh -6, MT1-MMP act inh 2, Env fusion inh -24 and MT1-MMP act inh RFP 1.
COC(=O)COC(=O)CC(CC(N)=O)c1ccccc1 (stereo not drawn) was read as CSC inhib -8, PABP polyA inh -7, Yeast UUG start -9, Rce1 inh inactive, eIF4H FP inh -2, MT1-MMP act inh 3, Env fusion inh -32 and MT1-MMP act inh RFP 3.
For CCCN(C(=O)c1cc(S(=O)(=O)N2CCCCC2)ccc1Cl)C1CCS(=O)(=O)C1 (stereo not drawn) the results were CSC inhib -10, PABP polyA inh -1, Yeast UUG start 22, Rce1 inh inactive, eIF4H FP inh -1, MT1-MMP act inh -10, Env fusion inh 12 and MT1-MMP act inh RFP -2.
For O=C(Nc1cccc(Cl)c1N1CCCC1)c1cc2ccccc2o1 the results were CSC inhib 74, PABP polyA inh -5, Yeast UUG start -16, Rce1 inh inactive, eIF4H FP inh -4, MT1-MMP act inh -6 and MT1-MMP act inh RFP -9.
For Cc1cccc(Nc2nc3c(S(=O)(=O)c4ccccc4)nnn3c3ccccc23)c1C the results were CSC inhib 15, PABP polyA inh 4, Rce1 inh inactive, eIF4H FP inh 6, MT1-MMP act inh 6, Env fusion inh 1 and MT1-MMP act inh RFP 2.
CCOC(=O)/C(C#N)=C1/C=CN(Cc2ccccc2)C=N1 was read as CSC inhib 28, PABP polyA inh -8, Yeast UUG start -14, Rce1 inh inactive, eIF4H FP inh -10, MT1-MMP act inh 1, Env fusion inh -12 and MT1-MMP act inh RFP 3.
O=C(NNC(=O)c1ccc2ccccc2c1O)NC1CCCCC1 was read as CSC inhib 1, PABP polyA inh -2, Yeast UUG start -16, Rce1 inh inactive, eIF4H FP inh -1, MT1-MMP act inh 4, Env fusion inh 1 and MT1-MMP act inh RFP 2.
For COc1ccccc1C(=O)Nc1ccc(C)c(S(=O)(=O)N2CCCCC2)c1 the results were Yeast UUG start -3, MT1-MMP act inh -1, Env fusion inh 8 and MT1-MMP act inh RFP -8.
Screening CN(c1ccccc1C(=O)Nc1cccc(Cl)c1Cl)S(C)(=O)=O returned CSC inhib -12, PABP polyA inh -3, Yeast UUG start -11, Rce1 inh inactive, eIF4H FP inh 1, MT1-MMP act inh -6, Env fusion inh -32 and MT1-MMP act inh RFP -7.
N#Cc1cnn(-c2cccc(Cl)c2)c1-n1cccc1 was read as CSC inhib -15, PABP polyA inh 9, Rce1 inh inactive, eIF4H FP inh -16, MT1-MMP act inh -5, Env fusion inh -49 and MT1-MMP act inh RFP -3.
For Cc1nc(SCC(=O)N2CCCCCC2)[nH]c(=O)c1C the results were Rce1 inh inactive, MT1-MMP act inh 5, Env fusion inh -15 and MT1-MMP act inh RFP 4.
For Cc1cc(=O)[nH]c(SCC(=O)Nc2nc3c(s2)CCCC3)n1 the results were CSC inhib -9, PABP polyA inh -8, Yeast UUG start -13, Rce1 inh inactive, eIF4H FP inh -1, MT1-MMP act inh -1, Env fusion inh -14 and MT1-MMP act inh RFP -1.
COC(=O)c1ccccc1NC=C1C(=O)OC2(CCCCC2)OC1=O was read as CSC inhib 6, PABP polyA inh 1, Yeast UUG start -8, Rce1 inh inactive, eIF4H FP inh 3, MT1-MMP act inh -4, Env fusion inh -64 and MT1-MMP act inh RFP 3.
`N#C/C(=C\c1cn(CC(=O)O)c2ccccc12)C(=O)NCc1ccccc1` gave CSC inhib -7, PABP polyA inh 15, Yeast UUG start 6, Rce1 inh inactive, eIF4H FP inh 1, MT1-MMP act inh -4, Env fusion inh -5 and MT1-MMP act inh RFP 1.
Screening CN(C)CCCOC(=O)N1c2ccccc2C=Cc2ccccc21 returned CSC inhib -1, PABP polyA inh -3, Yeast UUG start 1, Rce1 inh inactive, eIF4H FP inh -4, MT1-MMP act inh -2, Env fusion inh 8 and MT1-MMP act inh RFP 0.
Screening CC(=O)NCCNC(=O)c1cccc(NS(=O)(=O)c2ccc3c(c2)OCCO3)c1 returned CSC inhib -11, Rce1 inh inactive, MT1-MMP act inh 1 and MT1-MMP act inh RFP 2.
O=S(=O)(Nc1ccc2nc(C(F)(F)F)[nH]c2c1)c1ccccc1 was read as CSC inhib -7, PABP polyA inh 4, Yeast UUG start -9, Rce1 inh inactive, eIF4H FP inh -5, MT1-MMP act inh -9 and MT1-MMP act inh RFP -8.
For Cc1ccc(-n2c(C)cc(/C=N/NC(=O)CC3(C)OCCO3)c2C)cc1 the results were PABP polyA inh -3, Yeast UUG start -17, Rce1 inh inactive, eIF4H FP inh -1, MT1-MMP act inh 0, Env fusion inh 8 and MT1-MMP act inh RFP 4.
For CCOC(=O)Nc1ccc2c(c1)N(C(=O)CCN(CC)CC)c1ccccc1CC2 the results were CSC inhib 0, PABP polyA inh 1, Yeast UUG start 2, Rce1 inh inactive, eIF4H FP inh 2, MT1-MMP act inh -5, Env fusion inh 15 and MT1-MMP act inh RFP 1.

Screens from PubChem BioAssay.
